# D2 agonist – agonists of human D2 dopamine receptor (beta-arrestin) | P14416 | DiscoveRx PathHunter D2 beta-arrestin, luminescence, 90 min; 100% = 57 uM dopamine signal | activation, % (concentration not given with the values) | hit rate 0.084% among 360,000 | AID 624465; in the data active = activation above about 40%; inconclusive = about 15% to 40%; inactive = below about 15%; note: compound concentration not given in the record; the text of the record calls up to 30% inactive
# Target sequence (P14416 whole entry, looked up): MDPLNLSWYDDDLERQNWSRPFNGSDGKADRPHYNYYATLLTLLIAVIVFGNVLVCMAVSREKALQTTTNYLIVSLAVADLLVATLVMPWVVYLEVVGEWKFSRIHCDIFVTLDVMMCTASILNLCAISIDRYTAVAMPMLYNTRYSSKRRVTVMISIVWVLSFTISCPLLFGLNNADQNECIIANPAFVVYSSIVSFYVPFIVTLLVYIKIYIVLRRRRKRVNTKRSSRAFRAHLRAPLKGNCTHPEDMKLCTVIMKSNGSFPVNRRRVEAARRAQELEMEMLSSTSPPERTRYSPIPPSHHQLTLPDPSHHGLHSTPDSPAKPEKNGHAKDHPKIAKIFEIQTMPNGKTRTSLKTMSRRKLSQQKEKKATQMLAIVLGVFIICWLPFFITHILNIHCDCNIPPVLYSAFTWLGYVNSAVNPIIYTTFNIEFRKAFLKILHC
#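 DiscoveRx PathHunter D2 beta-arrestin cells (2,100/well) attached overnight, then compound-stimulated 90 min at 37 C in HBSS/10 mM HEPES/0.1% Tween-20 buffer; beta-galactosidase complementation read by luminescence after 1 h at ambient temperature. Dopamine 57 uM final (EC100) as control.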
# PINK1 expr mod – PINK1 expression modulation; Potency, µM (highest dose often 76.6 µM), without a hit: at the highest dose activation (PINK1 increase), usual class: activators; PINK1 immunofluorescence, high-content cytometry, 24 h; AID 624263; hit rate 0.2% among 410,000; active = well fitted activation curve with a large enough effect; inconclusive = small, poorly fitted or top-dose-only effect; inactive = flat fitted curve, though single readings scatter; cell line not stated here;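 note: potency is the fitted concentration of half-maximal effect; % of control where 0% means no effect; nearly all actives have a fitted effect of over 65% in size; a mitochondrial uncoupler was the plate control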
#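 Decision-based qHTS: stable cells, 24 h exposure to five compound concentrations, CCCP as control. Fixed cells stained for PINK1 plus nuclear, mitochondrial and cell markers, cytometer read.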
# D2 potentiator – human D2 receptor positive allosteric modulation. P14416. potentiation, % (no concentration beside the values). DiscoveRx D2 beta-arrestin cells, luminescence, 90 min; 100% = 57 uM dopamine signal. AID 624464. hit rate 0.23% among 360,000; active = potentiation of 50% or more; inconclusive = 30% to 50%; inactive = 30% or less;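 note: compound concentration not given in the record; tested on top of an EC20 dose of dopamine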
#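 PathHunter beta-arrestin assay in DiscoveRx D2 cells. Compounds were added with an EC20 of dopamine (50 nM final) for 90 min at 37 deg C. Luminescence was read 1 h after detection reagent, with 57 uM dopamine as the EC100 control.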
# CtBP-E1A blk – CtBP/E1A binding inhibition; AID 651724; activity change, % (no concentration beside the values); AlphaScreen GST-E1A/His-CtBP binding, 1536-well; active compounds read low; control for the full effect not named in the record; hit rate 0.49% among 340,000; in the data active means activity change below about -65%; inconclusive means about -30% to -65%; inactive means above about -30%; note: % is set by controls: 0 for no effect and ±100 for the full control effect
#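 AlphaScreen with 125 nM GST-E1A and 125 nM His-CtBP (5X stocks) in Tris pH 8.0, 300 mM NaCl, BSA, Tween 20, TCEP. Compounds preincubated 2 h at 37 deg C, then glutathione donor/nickel acceptor beads added for 1 h at 37 deg C in dark.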
# TRPML1 agonist – activates the human TRPML1 channel; Q9GZU1; TRPML1-expressing cells, Ca2+ dye fluorescence, FDSS; host cell line not named in the record; reference of the full effect not given here; activation, % (concentration not given with the values); hit rate 0.12% among 410,000; AID 624414; in the data active = activation above about 50%; inconclusive = about 30% to 50%; inactive = below about 30%; note: 0% is about no effect; the text of the record puts the active cut at 80%
# Target sequence (Q9GZU1 whole entry, looked up): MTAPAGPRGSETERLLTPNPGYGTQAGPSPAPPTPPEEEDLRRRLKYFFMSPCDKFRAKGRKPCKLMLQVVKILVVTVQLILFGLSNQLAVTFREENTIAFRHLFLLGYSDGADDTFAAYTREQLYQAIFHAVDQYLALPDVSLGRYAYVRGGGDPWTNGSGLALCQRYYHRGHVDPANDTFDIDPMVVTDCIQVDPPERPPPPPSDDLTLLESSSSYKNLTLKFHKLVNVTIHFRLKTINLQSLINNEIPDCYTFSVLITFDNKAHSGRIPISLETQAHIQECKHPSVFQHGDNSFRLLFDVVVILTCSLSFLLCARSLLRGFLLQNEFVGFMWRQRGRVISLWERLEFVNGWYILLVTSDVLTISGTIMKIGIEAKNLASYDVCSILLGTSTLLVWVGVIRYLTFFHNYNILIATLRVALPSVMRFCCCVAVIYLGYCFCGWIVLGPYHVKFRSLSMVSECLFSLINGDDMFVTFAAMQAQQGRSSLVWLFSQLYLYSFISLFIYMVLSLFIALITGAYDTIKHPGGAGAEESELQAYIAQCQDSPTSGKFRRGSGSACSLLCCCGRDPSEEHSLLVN
#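 Tetracycline-induced TRPML1-DL cells are seeded and incubated overnight before loading with a no-wash Ca2+ dye and quencher. Agonist activity is taken from the 110 s fluorescence read following compound pin-transfer on an FDSS, before EC80 54-4 challenge.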
# Six1-Eya2 inh – Six1/Eya2 interaction inhibition. activity change, % (test concentration not listed). hit rate 0.56% among 360,000. Q15475+O00167. AID 651725. AlphaScreen GST-Six1/His-Eya2 binding, biochemical; active compounds read low; control for the full effect not named in the record; in the data active = activity change below about -65%; inconclusive = about -30% to -65%; inactive = above about -30%; note: % is set by controls: 0 for no effect and ±100 for the full control effect
#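 AlphaScreen luminescence read after one hour at 37 °C in darkness. Pin-transferred compounds met GST-Six1 and His-Eya2 protein (5X stock 250 nM/500 nM) plus glutathione donor and Ni-chelate acceptor beads (5X, 50 ug/mL).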
# * = called active by the depositor; ? = inconclusive; / = no result given; [ ] = dose if it differs, or a comment.
SMILES,D2 agonist,PINK1 expr mod,D2 potentiator,CtBP-E1A blk,TRPML1 agonist,Six1-Eya2 inh
O=c1cc(Cc2ccccc2)[nH]c(=S)[nH]1,-9.4,-0.6%,-17,12,-1.1,-4
CCCc1nnc(NC(=O)CCC(=O)N2CCCCCC2)s1,-2.4,0.8%,5,3,0.2,2
O=C(O)c1ccc2c(c1)C(c1ccccc1)OC2=O (stereo not drawn),-3.1,63%[38.3 µM],-6,4,-0.7,6
CCOc1nc(NCCc2ccc(OC)c(OC)c2)nc(N2CCN(c3ccc(OC)cc3)CC2)n1,-2.6,/,-6,8,0.1,-1
Cc1ccc(-n2c(CSc3nc(C)cc(C)n3)nnc2SCC(=O)Nc2nccs2)cc1,-4.6,0.0%,-8,2,0.0,10
Cc1cccc2cc(CN(Cc3ccco3)C(=O)c3ccco3)c(=O)[nH]c12,-1.3,1.0%,-3,-2,1.1,-5
Cc1ccc2cc(CN(CCN3CCCC3)C(=O)Nc3ccccc3)c(=O)[nH]c2c1C,-1.1,1.5%,-30,-3,0.1,-2
Cc1cc(C(F)(F)F)nn1Cc1n[nH]c(=S)n1-c1ccc(Cl)cc1,-4.3,2.4%,11,-13,-0.5,-3
CCc1c(C)c(C#N)c2nc3ccccc3n2c1Nc1c(C)n(C)n(-c2ccccc2)c1=O,-4.2,18%[38.3 µM],-10,-2,-0.7,-4
CC12CCC(=O)N1C(C(=O)NNC(=O)c1ccccc1Cl)CS2 (stereo not drawn),-2.1,0.5%,-2,/,-0.1,3
O=C(c1cc([N+](=O)[O-])cc([N+](=O)[O-])c1)N1CCOCC1,3.2,8.8%,27,-5,0.0,6
O=C(Cn1c(=O)[nH]c2ccccc2c1=O)N1CCN(c2cccc(Cl)c2)CC1,-4.8,15%,-2,3,0.0,-13
CC1CN(S(=O)(=O)c2ccc(-c3nc4ccccc4s3)cc2)CC(C)O1 (stereo not drawn),1.8,12%[38.3 µM],-5,0,0.7,3
COc1ccc(N2C(=O)CC(Sc3nnc(-c4ccccc4)o3)C2=O)cc1 (stereo not drawn),2.6,/,-18,-3,0.7,0
COc1ccc(NC(=O)CN2C(=O)C(=O)N(C3CCCC3)C2=O)c(OC)c1,-1.5,0.6%,-2,-3,1.0,0
CCC(=O)Nc1ccc(C(=O)N2CCN(C(=O)c3ccco3)CC2)cc1,-2.9,-1.2%,-2,-5,0.1,6
O=C(CN1CCN(S(=O)(=O)c2ccc(Cl)c(C(F)(F)F)c2)CC1)NC(=O)NC1CCCCC1,-5.2,3.2%,1,0,-0.5,-3
CC(=O)N1CCN(CC(=O)Nc2ccc3c(c2)CCC3)CC1,4.3,-0.6%,9,11,-0.6,5
C/C(=N\O)c1ccc2c(c1)OCCO2,5.3,-1.1%,-14,/,1.0,0
Cc1ccc(C)c(-n2c(SCC(N)=O)nnc2-c2ccccn2)c1,-1.1,-0.2%,15,-23,-0.8,?
CCCCc1cc(=O)oc2c(CN(C)C)c(O)ccc12,-2.5,-0.7%,-10,0,0.5,10
CCC(C)(O)c1[nH]c2ccc(C(=O)OC)cc2c1C (stereo not drawn),-0.2,6.1%,-3,0,1.2,19
Cc1ccc(/C=C/C(=O)NCCc2c[nH]c3ccccc23)o1,-7.2,0.3%,-43,0,-0.1,13
O=C(O)c1cccc(CN2C(=O)SC(Nc3cccc4ccccc34)C2=O)c1 (stereo not drawn),-2.7,-1.3%,-9,-6,-1.5,1
CS(=O)(=O)N(CC(=O)N1CCCC1)c1ccc(Cl)c(Cl)c1,-2.9,0.3%[38.3 µM],-7,0,0.0,-3

# As entered above:
# D2 agonist result of CCCc1nnc(NC(=O)CCC(=O)N2CCCCCC2)s1 → -2.4
# Six1-Eya2 inh result of O=c1cc(Cc2ccccc2)[nH]c(=S)[nH]1 → -4
# PINK1 expr mod result of CCCCc1cc(=O)oc2c(CN(C)C)c(O)ccc12 → -0.7%

# New compounds follow.
SMILES,D2 agonist,PINK1 expr mod,D2 potentiator,CtBP-E1A blk,TRPML1 agonist,Six1-Eya2 inh
O=c1cc(CO)oc(C(Nc2ccccn2)c2ccc(C(F)(F)F)cc2)c1O (stereo not drawn),-4.8,-1.7%,-5,-1,0.4,4
COC(=O)Cc1ccc2sc(-c3ccccc3)nc2c1,2.4,1.1%,-2,4,3.9,28
Cc1ccc(/C=N/NC(=O)c2cccc([N+](=O)[O-])c2)o1,4.7,-0.1%,-4,-21,1.3,-29
Cc1nn(-c2ccccc2)c(=S)n1-c1ccccc1,-3.8,3.6%,-11,0,0.9,-2
Cc1cc(C)nc(N2CCN(c3nnnn3-c3ccccc3)CC2)n1,-0.5,-1.3%,-15,-4,2.7,5
CN(CC(=O)Nc1ccc(F)cc1)C(=O)COC(=O)CSc1ccc(F)cc1,2.2,-1.2%,-1,6,0.3,-4
Cc1nc2ccccn2c1/C(O)=C1\C(=O)C(=O)N(CCN2CCOCC2)C1c1cccnc1 (stereo not drawn),-3.3,0.7%,-10,18,-0.4,28
Cc1nn(CC(=O)O)c(C)c1[N+](=O)[O-],-3.2,0.8%,-1,2,0.3,8
CCNc1nc(NCC)n2c(SCC(=O)Nc3cc(OC)ccc3OC)nnc2n1,-1.6,-0.4%,-11,-13,0.3,-3
Cc1cc(C)c2c(CN3CCN(Cc4ccc5c(c4)OCO5)CC3)cc(=O)oc2c1C,-3.5,7.0%,-26,-3,0.9,-11
CCCCCC(=O)NC(CC(=O)OC)c1ccc2c(c1)OCO2 (stereo not drawn),-5.6,-0.7%,3,1,-0.2,6
COc1ccc(C2=NN(C(=O)c3ccccc3C(=O)O)C(c3ccccc3O)C2)cc1 (stereo not drawn),-0.2,0.0%,-2,1,-0.7,5
O=c1c2ccccc2nc(SCc2ccc(F)cc2Cl)n1CCCN1CCOCC1,-6.1,3.6%,-21,/,2.1,-18
COc1cc(/C=N/NC(=O)c2cccs2)ccc1O,1.6,1.0%,-2,0,0.7,0
CCc1nc2ccc(C(=O)NCCc3ccco3)cc2nc1CC,2.5,1.1%,-4,-5,1.4,-6
OCCN1CCN(c2ncnc3c2ncn3[C@H]2CN(Cc3ccc(Cl)cc3)C[C@@H](CO)O2)CC1,-2.3,0.1%,-1,2,-0.2,2
O=c1[nH]c2ccccc2c2ccccc12,-3.0,0.8%,-5,-2,-0.3,-3
Cc1ccc(CSc2nnc(CC(=O)Nc3ccc(C)cc3)n2C)cc1,1.1,2.7%[38.3 µM],0,-2,-0.8,3
O=C(NCc1ccco1)C1CCC(N2C(=O)c3ccccc3C2=O)CC1 (stereo not drawn),-1.9,-4.4%[38.3 µM],-14,8,-0.4,7
O=S(=O)(c1ccc(Cl)cc1)N1CCN=C1SCc1cccnc1,7.0,-0.8%,-5,/,0.7,-2
O=C(Cn1ncc2ccccc2c1=O)Nc1cccc(C(F)(F)F)c1,-1.5,5.9%,-14,-1,-0.7,2
COc1ccc(C2=NN(C(=O)CSc3ncccn3)C(c3ccc(C)cc3)C2)cc1 (stereo not drawn),-1.7,0.2%,-24,-9,0.6,-12
CCN(C(=O)c1cc2cc3ccc(C)cc3nc2o1)c1ccc(OC)cc1,-5.1,5.2%,-11,4,-0.7,-9
CCN1CCN(CC(=O)N2c3ccccc3Sc3ccccc32)CC1,-4.4,-2.2%,-7,/,3.0,6
Cc1ccc(CNC(=O)CSc2nc3ccsc3c(=O)n2NC(=O)c2ccccc2)cc1,-2.3,-2.1%,-6,7,-0.6,-2

# 4 records drawn at random from those above, as already listed:
SMILES,D2 agonist,PINK1 expr mod,D2 potentiator,CtBP-E1A blk,TRPML1 agonist,Six1-Eya2 inh
Cc1nn(CC(=O)O)c(C)c1[N+](=O)[O-],-3.2,0.8%,-1,2,0.3,8
O=c1c2ccccc2nc(SCc2ccc(F)cc2Cl)n1CCCN1CCOCC1,-6.1,3.6%,-21,/,2.1,-18
CCCCCC(=O)NC(CC(=O)OC)c1ccc2c(c1)OCO2 (stereo not drawn),-5.6,-0.7%,3,1,-0.2,6
Cc1cc(C)c2c(CN3CCN(Cc4ccc5c(c4)OCO5)CC3)cc(=O)oc2c1C,-3.5,7.0%,-26,-3,0.9,-11

# Remaining list, next part:
SMILES,D2 agonist,PINK1 expr mod,D2 potentiator,CtBP-E1A blk,TRPML1 agonist,Six1-Eya2 inh
Cc1nc(C(F)(F)F)ccc1C(=O)N1CCC1(C)C(=O)NS(=O)(=O)c1ccc(Cl)cc1 (stereo not drawn),-4.0,0.6%,-8,6,-0.2,3
Cc1ccc(C(=O)NC(=S)Nc2ccc(N3CCOCC3)cc2)c(C)c1,0.0,3.3%,-7,-11,0.3,-11
Nc1nnc(SCC(=O)N2CCN(c3cccc(Cl)c3)CC2)n1-c1ccccc1,0.3,-3.6%[38.3 µM],-9,-7,-0.1,-7
Cc1noc(NS(=O)(=O)c2ccc(N/C=C\C(=O)c3ccncc3)cc2)c1C,-3.0,-12%[38.3 µM],5,-28,-0.8,?
COc1ccc(Cc2[nH]n3c(=O)c(Cl)c(C)nc3c2-c2ccccc2)cc1,9.2,-0.1%,3,4,-0.7,-4
Cc1cc([N+](=O)[O-])nn1CCCC(=O)Nc1cc(Oc2ccc(F)cc2)cc([N+](=O)[O-])c1,4.7,?,-6,-17,1.7,3
CC(C)CNC(=O)/C=C/C=C/CCCC/C=C/c1ccc2c(c1)OCO2,-0.8,6.7%,-4,6,-0.2,3
COc1ccc(-c2noc(CCC(=O)Nc3ccc(C)c(C)c3)n2)cc1,0.8,6.6%[38.3 µM],-9,10,2.6,3
OC(c1ccc(F)c(F)c1)c1nc(-c2ccccc2)cs1 (stereo not drawn),1.1,12%,0,0,-0.4,7
O=c1[nH]c(-c2ccccc2)nc(-c2ccccc2)c1Cl,0.3,-0.4%,-6,4,0.8,-6
Cc1ccc(/C=C/C(=O)OCC(=O)Nc2cccnc2Cl)cc1,12,0.7%,0,?,-0.7,-1
CCOC(=O)C1=C(C)N(C)C(=O)NC1c1ccc(C)s1 (stereo not drawn),-2.2,-1.5%[38.3 µM],-9,-9,1.7,4
CC(NC(=O)c1ccc(Cl)cc1)C(=O)N1CCCCC1 (stereo not drawn),-1.9,4.4%,-7,8,0.2,12
CC(=O)c1ccc2noc(-c3ccc(Cl)cc3)c2c1,?,5.8%,?,8,0.8,1
COc1ccc(C(=O)c2nccc3cc(OC)c(OC)cc23)cc1OC,?,3.6%,94*,-7,2.6,8
CC1(C)Cc2c(c(N3CCOCC3)nc3snc(Br)c23)CO1,1.6,-2.2%,5,6,0.1,-6
Clc1ccc2[nH]c3c(c2c1)CCc1cn[nH]c1-3,-0.4,0.3%,1,-11,1.0,-14
CCOC(=O)C(=CNc1ccc(NC2=NCC(C)(C)S2)cc1)C(=O)OCC,5.2,0.8%,7,3,0.7,-1
CC(C)c1c(C(=O)N/N=C/c2cccc3ccccc23)nnn1-c1nonc1N,-2.9,4.0%,-13,/,1.5,4

# Source: PubChem
